Sa RN4220 lethal – kills Staphylococcus aureus RN4220; S. aureus RN4220 growth, OD600, 16 h; inhibition, % (test concentration not listed); 330,000 compounds, 0.33% hits;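 active means z-score of -3 or lower and OD600 up to 0.18 on both plates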;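 further: plate controls were untreated cells for no effect and reference antibiotic for full effect; stock transfer was 100 nL into about 80 µL; one replicate is shown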
Sa ugtP lethal – kills S. aureus RN4220 lacking UgtP; S. aureus RN4220 ugtP deletion, OD600 growth, 16 h; some inactives read as strong as hits; growth inhibition, % (concentration not given with the values); 330,000 compounds, 0.54% hits; AID 1259309;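 active means z-score under -3 and OD600 up to 0.15 on both plates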;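 further: plate controls were untreated wells for no effect and antibiotic for full effect; wells of about 80 µL received 100 nL stock; the first replicate is given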
BJeLR viability – BJeLR cell viability loss. BJeLR (HRASV12) viability, CellTiter-Glo ATP luminescence, 48 h; reference of the scale not given here. inhibition, % (concentration not given with the values). 300,000 compounds, 0.17% hits;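 active means replicate mean above 50%; inconclusive means above 50% but judged a plate artefact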;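 further: 50 nL library stock added to about 25 µL; numbers are from one replicate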
Mtb hypoxia inh – reduces hypoxia-regulated biosensor signal in M. tuberculosis; 300,000 compounds, 0.1% hits; fluorescence inhibition, % (no concentration beside the values); AID 1159583; M. tuberculosis hypoxia-regulated fluorescent reporter, fluorescence;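 active means 35 to 45% if threefold the growth effect, above 45% if 1.5-fold the growth effect; inactive means the rest, general growth blockers included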;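 further: wells of about 50 µL received 100 nL stock; 0% = vehicle wells and 100% = reference inhibitor wells; whole bacteria with a GFP reporter of the hypoxia response; strong numbers were not always called active; many hits fall short of the cut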
Bead autofluor – compound fluorescence in toxin protease inhibitor counterscreen; fluorescence intensity (no concentration beside the values); compound autofluorescence counterscreen, microsphere flow cytometry; active compounds read high; 360,000 compounds, 3.1% hits;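 active means at least 3 SD above the mean of all compounds, about 16000 in these data; inconclusive means too few beads counted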;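 further: 100 nL of 1 mM stock went into each well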
PrP UTR inh – inhibition of PrP 5' UTR reporter expression; cell-based PrP 5' UTR mRNA reporter, plate reader; inhibition, % (test concentration not listed); 340,000 compounds, 0.35% hits;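 active means every replicate at 50% or more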;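 further: 0 = median of the neutral control wells; tested in H4 reporter cells; numbers are from one replicate; inactives centre near -14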
Mtb hypoxia inh growth – also measured in Mtb hypoxia inh; calls as there; growth inhibition, %; measured here: M. tuberculosis growth (absorbance);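 0% = vehicle and 100% = reference antibiotic; read after six days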
An asterisk follows results filed as active; u = inconclusive; x = not tested or not shown; & = joins results of further samples. Rows are unselected. Share with any hit: about 4%.

SMILES | Sa RN4220 lethal | Sa ugtP lethal | BJeLR viability | Mtb hypoxia inh | Mtb hypoxia inh growth | Bead autofluor | PrP UTR inh
CN(N=Cc1ccc(C(C)(C)C)cc1)C1=NCCN1 | 1.5 | 0.5 | x | -6.5 | 3.7 | x | x
O=C(CCCC(=O)N(CC(=O)NC1CCCC1)c1ccc(F)c(Cl)c1)Nc1ccccn1 | 1.8 | -1.0 | 8.0 | 12.2 | -1.8 | 4023 | -4.1
Cc1cc(C)c2c(N)c(C(=O)NCc3ccco3)sc2n1 | -13.5 | -0.2 | -12.3 | x | x | 2555 | -10.3
Cc1ccc(C)c(S(=O)(=O)Nc2ccc3scnc3c2)c1 | 1.7 | -1.8 | 11.9 | x | x | 5063 | -17.6
O=C(c1ccncc1)N1N=C(C2CCCCC2)CC1(O)C(F)(F)F (stereo not drawn) | 8.7 | -1.4 | -4.9 | -4.9 | 10.0 | 4200 | x
COc1ccc(CNC(=O)C(c2ccc(C)cc2)N(Cc2cccs2)C(=O)c2ccc3c(c2)OCCO3)cc1 (stereo not drawn) | -4.4 | 8.2 | 5.5 | 6.6 | -0.6 | 7882 | -5.4
Cc1cc(OC(F)F)ccc1NC(=O)Nc1ccc2c(c1)OCO2 | -0.6 | -2.5 | -4.9 | 2.3 | 5.8 | 5928 | -20.7
COc1ccc(CCCC(=O)NN=Cc2cccc(OC)c2O)cc1C | 1.3 | 18.0 | x | 8.2 | 1.4 | x | x
CCN(CC)S(=O)(=O)c1cccc(NC(=O)c2cccc(S(=O)(=O)N3CCCC3)c2)c1 | 4.4 | 8.3 | x | 17.9 | 6.6 | 3681 | -2.2
CCc1nnc(NC(=O)CCC(=O)Nc2ccc(OC)cc2OC)s1 | 6.0 | 13.0 | 1.0 | -3.2 | -9.2 | 3770 | -66.4

Of the compounds above, 2 contain two or more sulfur atoms:
SMILES | Sa RN4220 lethal | Sa ugtP lethal | BJeLR viability | Mtb hypoxia inh | Mtb hypoxia inh growth | Bead autofluor | PrP UTR inh
Cc1ccc(C)c(S(=O)(=O)Nc2ccc3scnc3c2)c1 | 1.7 | -1.8 | 11.9 | x | x | 5063 | -17.6
CCN(CC)S(=O)(=O)c1cccc(NC(=O)c2cccc(S(=O)(=O)N3CCCC3)c2)c1 | 4.4 | 8.3 | x | 17.9 | 6.6 | 3681 | -2.2

Following part:
SMILES | Sa RN4220 lethal | Sa ugtP lethal | BJeLR viability | Mtb hypoxia inh | Mtb hypoxia inh growth | Bead autofluor | PrP UTR inh
CSc1nsc(SCC(=O)N2CCc3ccccc32)n1 | 8.6 | 0.3 | -4.3 | x | x | 2828 | -34.4
COc1nc2c(C)cccc2cc1-c1noc(-c2ccco2)n1 | -5.9 | -7.6 | x | x | x | 5031 | -25.6
CCCCc1nc2n[nH]c(N)c2c2c1CSC(C)(C)C2 | 1.4 | -3.3 | -2.9 | x | x | 2904 | 0.6
Cc1noc(C)c1Cn1nc(C(=O)O)c2ccccc2c1=O | 4.6 | 4.7 | -3.8 | x | x | 2347 | -9.9
Cc1ccc(C(=O)N/N=C/c2ccc(-c3cccc(C(F)(F)F)c3)o2)cn1 | x | x | 12.4 | x | x | 2925 | -25.2
O=C(Cn1ccc(C(F)(F)F)n1)NNC(=O)c1cccnc1 | 1.3 | 4.2 | -9.0 | 15.8 | 2.4 | u | -23.9
Cc1sc2ncn(CC(=O)NCC(=O)N3CCN(c4ccc(F)cc4)CC3)c(=O)c2c1C | 2.7 | -0.8 | -1.7 | 1.5 | -1.8 | 6878 | -13.2
Brc1cc(-c2ccccc2)nc(-c2ccccc2)n1 | 0.7 | 32.6 | -5.4 | 2.6 | -3.0 | 3581 | x
O=C(Cn1cnc2c(nnn2Cc2ccccc2F)c1=O)NCc1ccco1 | -2.2 | -2.8 | 1.5 | -0.8 | -1.9 | 10332 | x
CC(C)(C)C1C=C(C(=O)N2CCN(Cc3ccc4c(c3)OCO4)CC2)OC(OCc2ccc(CO)cc2)C1 (stereo not drawn) | 3.1&5.3 | -9.9&-17.6 | x | 2.6&6.0 | 4.5&2.7 | x | x
CC(=O)N1[C@H](C)C=C[C@]1(Cc1ccccc1)C(=O)O | x | x | -9.3 | x | x | 3504 | -11.4
COc1ccc(-n2c(-c3cccc(C)c3[N+](=O)[O-])n[nH]c2=S)cc1 | 1.4 | -7.6 | 2.5 | -3.2 | -5.8 | 9203 | -20.5
Cc1c(NC(=S)N/N=C\c2ccccc2O)c(=O)n(-c2ccccc2)n1C | x | x | 18.6 | x | x | 2600 | -8.5
CCCCNc1ncnc2c1cnn2Cc1ccc(Cl)cc1 | -15.7 | -5.8 | 3.5 | 2.7 | -1.1 | 3726 | -20.9
Cc1c(NC(=O)c2cc3ccccc3c(=O)s2)c(=O)n(-c2ccccc2)n1C | -1.1 | -20.9 | 0.8 | -3.3 | -0.9 | 6549 | -11.8
CCOc1ccc(C(=O)NC(=S)N(Cc2ccccc2)Cc2ccccc2)cc1 | 5.5 | 34.2 | -23.2 | 1.5 | 12.4 | 11318 | 9.3
CC1Cc2cc(/C(O)=C3\C(=O)C(=O)N(Cc4ccncc4)C3c3ccccc3F)ccc2O1 (stereo not drawn) | 11.3 | 9.7 | 4.4 | -1.1 | -5.1 | 5485 | 2.7
Cc1ccc(N(Cc2cc3ccccc3[nH]c2=O)C(=O)c2ccco2)c(C)c1 | 11.7 | -2.5 | -0.5 | 9.7 | -30.4 | 2617 | -7.9
COc1ccc(C(=O)N/C(=C\c2cn(C)c3ccccc23)C(=O)NCCCN2CCOCC2)cc1OC | 5.4 | -3.7 | 3.2 | 14.6 | 6.2 | 5181 | -12.9
COc1cc(C(=O)NC(C(=O)Nc2cccc(C(C)=O)c2)C(C)C)cc(OC)c1OC (stereo not drawn) | 3.9 | 9.6 | -10.4 | 4.4 | -9.8 | 3762 | -21.9
COc1ccc(CCNC(=O)CN2C(=O)NC3(CCc4ccccc43)C2=O)cc1 (stereo not drawn) | 5.6 | 2.2 | x | 1.5 | 5.3 | 3482 | 6.9
COc1cccc(CC(=O)N2CCC(n3nccc3NC(=O)C3CCOC3)CC2)c1 (stereo not drawn) | 2.1 | 0.9 | 5.5 | 3.2 | -1.1 | 6367 | -2.4
Cc1ccc(N(CC(=O)Nc2cc(C)ccc2C)S(C)(=O)=O)cc1 | 0.3 | -1.4 | 4.4 | -0.5 | 1.5 | 3174 | -55.9
CC(=O)c1ccc(NC(=O)CC23CC4CC(C2)CC(n2nnc(C)n2)(C4)C3)cc1 | 0.3 | 6.2 | 10.0 | 2.5 | 7.3 | 4244 | -33.6
COc1ccccc1C(C)=NNC(=O)c1nnn(-c2nonc2N)c1C(C)C | 5.1 | 8.1 | x | 6.0 | 6.2 | x | x
N#Cc1ccccc1S(=O)(=O)N1CCN(C(=O)c2ccc(-n3cncn3)c([N+](=O)[O-])c2)CC1 | -0.8 | 4.2 | -0.4 | 2.5 | -9.8 | x | -16.1
COc1ccccc1CNS(=O)(=O)c1ccc(-n2cnnn2)c(OC)c1 | 1.1 | -3.7 | -0.3 | 6.7 | -5.3 | 4252 | -14.4
CCn1c(SCC(=O)Nc2cc(C)on2)nc2c(c1=O)SCC2 | 4.9 | 6.1 | -17.5 | 3.7 | -5.1 | 6142 | 3.3
COC(=O)c1cc(NC(=O)CSc2nnc(N)s2)ccc1Cl | 8.1 | 0.0 | 3.7 | 5.8 | 7.4 | 4595 | -17.9
COc1ccccc1N(CC(=O)NN=C(C)c1ccc(F)cc1)S(=O)(=O)c1ccccc1 | 0.8 | -5.3 | x | 5.4 | 2.5 | x | x
COCCn1c(SCC(=O)c2ccc3c(c2)OCCO3)nnc1-c1ccco1 | 4.7 | -2.9 | -5.6 | 8.4 | 7.2 | 6804 | -16.6
C/C(=N\OC(=O)c1cccc(C(F)(F)F)c1)c1sc(-c2ccccc2)nc1C | x | x | 1.1 | x | x | 6070 | -61.2
COc1cc(C=NNC(=O)c2cccc(NC(=O)c3ccccc3)c2)ccc1O | 1.1 | -1.8 | x | 3.2 | -0.8 | x | x
Cc1ccc(S(=O)(=O)NCC(=O)OCC(=O)NC(=O)NC2CCCC2)cc1 | -3.3 | 0.3 | -0.1 | 6.0 | 1.1 | 4471 | -27.9
CC(C)(C)c1n[nH]c(=S)n(/N=C/c2cccs2)c1=O | x | x | -9.3 | x | x | 2484 | 3.2
CC1CN(C(C)CO)C(=O)Cc2cc(NC(=O)CCC(F)(F)F)ccc2OC1CN(C)CC1CC1 (stereo not drawn) | -0.1 | 2.4 | x | 14.9 | 6.3 | x | x
Cc1c(C(=O)N2CCOCC2)c(S(=O)(=O)Nc2cccc(F)c2)c(C)n1C | 0.9 | -2.4 | -0.4 | 3.4 | 13.6 | 6250 | -5.0
CCn1nnc(NC(=O)c2ccc(C(C)(C)C)cc2)n1 | 4.9 | -1.5 | -5.5 | 1.6 | 4.8 | 3647 | -92.9
CC1=Nc2ccccc2/C1=C\c1nc(-c2ccc(F)cc2)oc1O | 28.9 | 56.6 | 11.6 | 5.8 | 7.7 | 8406 | -37.5
COc1ccc(NC(=O)CNC(=O)c2ccco2)cc1 | 4.8 | 3.6 | -2.5 | 12.4 | 4.7 | x | -23.7
CC1CCN(C(=O)C(=O)Nc2sc3c(c2C(N)=O)CC(C)(C)OC3)CC1 | 2.4 | 1.9 | -4.1 | -4.1 | 4.8 | 5645 | -6.6
CC(NC(=O)COC(=O)Cn1cc(C(F)(F)F)ccc1=O)c1ccccc1 (stereo not drawn) | 6.4 | 6.4 | x | 9.5 | 2.5 | 5340 | -5.3
Nc1nc(SCCO)[nH]c(=O)c1NC(=O)c1ccccc1F | 1.8 | 0.9 | -5.0 | 6.6 | -3.2 | 2357 | -49.7
CCn1c(=O)c(-c2cc(=O)[nH][nH]2)c(O)c2ccccc21 | 1.5 | 1.7 | -5.8 | 2.7 | 4.6 | 4049 | -17.1
O=C(O)CCC(=O)Nc1ccc(Cc2ccc(NC(=O)CCC(=O)O)cc2)cc1 | 6.5 | 7.0 | 4.1 | 0.1 | 7.2 | 3822 | -2.8
CC(C)c1ccc(NC(=O)CSc2nnc(OC(=O)N(C)C)n2C2CC2)cc1 | 3.4 | 4.7 | 2.4 | -0.4 | 1.5 | 5027 | -12.9
CS(=O)(=O)N(CCc1ccccc1)CC(=O)Nc1ccc(Br)cc1F | 2.2 | 3.8 | 20.4 | 15.8 | 13.7 | 3491 | -25.7
Cc1ccc(C)c(C(=O)n2cnnc2N)c1 | 2.9 | 3.5 | x | x | x | 3397 | -7.4
CCOC(=O)Cc1csc(NS(=O)(=O)c2ccc(OC)cc2)n1 | 2.6 | -1.8 | 1.0 | -0.3 | 15.3 | 3959 | -48.1
CS(=O)(=O)N(CCc1ccccc1)CC(=O)NCc1ccncc1 | 3.6 | -1.9 | 3.2 | 10.5 | 2.9 | 5781 | -32.1
Next part.
SMILES | Sa RN4220 lethal | Sa ugtP lethal | BJeLR viability | Mtb hypoxia inh | Mtb hypoxia inh growth | Bead autofluor | PrP UTR inh
COc1ccc(OC)c(NC(=O)Nc2cccc(Cn3cccn3)c2)c1 | -5.0 | 4.0 | -6.1 | 2.6 | 7.1 | 21355* | -32.3
C/C(Cl)=C\Cn1c(=O)c2c(nc3n2CCS3)n(C)c1=O | 1.3 | 0.9 | 4.5 | x | x | 2277 | -38.8
CCc1ccccc1NC(=O)c1ccccc1Sc1ccc([N+](=O)[O-])cc1Cl | 8.7 | 9.9 | -2.4 | 0.5 | 4.4 | 2509 | -7.3
CNC(=O)N(O)C1N(NC(=O)Nc2cccc3ccccc23)C(=S)SC1(C)C (stereo not drawn) | 1.9 | -6.8 | -0.4 | x | x | 2106 | -31.3
O=[N+]([O-])c1ccc(-c2cnc3ccccc3n2)cc1 | 1.4 | 4.5 | -4.8 | -5.6 | 7.0 | 3960 | -63.7
C/C(CC(=O)Nc1ccccc1)=N\NC(=O)COc1ccc(C)cc1Br | x | x | 2.4 | x | x | 4023 | -0.1
CCOc1ccc(C2C(C#N)=C(N)Oc3cc(C)oc(=O)c32)cc1 (stereo not drawn) | -2.4 | -1.0 | -4.0 | -3.6 | -18.7 | 2607 | -15.2
FC(F)(F)c1ccccc1NC(=S)NN=C1CC2CC=CC12 (stereo not drawn) | 2.9 | 11.1 | x | 3.5 | 4.2 | x | x
